Bioassay records: PubChem BioAssay, several laboratories
Rce1 inhib – yeast Rce1p protease inhibitors, primary screen, biochemical, fluorescence, cell-free homogeneous | yeast membranes, quenched prenylated peptide cleavage fluorescence | calls only | 0.27% of 290,000 active;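 active means fall in fluorescence gain of 50% or more versus controls, with final raw signal at or below 3038400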;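 further: plate controls were neutral control wells for no effect and wells lacking membranes for full effect; tested at 10 µM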
eIF4H FP inh – human eIF4H binding inhibitors, primary screen, translation initiation inhibitor project, biochemical, uHTS, fluorescence polarization | Eukaryotic translation initiation factor 4H (Homo sapiens), Q15056 | eIF4H fluorescence polarization binding assay | inhibition, % at 35 µM | 0.94% of 290,000 active;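 active means 50% or more with normal probe brightness, or confirmed in later tests; about a fifth of its hits are not listed in these tables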;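 further: calls also rest on retests at 20 µM and on dose response follow-up; 0% = protein and probe with vehicle and 100% = probe without protein; strong numbers were not always called active; many hits fall short of the cut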
Env fusion inh – inhibitors of HIV-1 Env-driven cell-cell fusion, primary screen, HeLa-JRFL effector, CEM21 target cells, luciferase; inhibition, % at 12.3 µM; 1.1% of 360,000 active; AID 651610, 2012;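 active means mean replicate inhibition score of at least 50 and every replicate individually at or above 50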;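 further: 0% = plate neutral controls and 100% = maraviroc near 300 nM; one replicate is shown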
PABP polyA inh – PABP poly(A) RNA binding inhibitors, primary screen, biochemical, fluorescence polarization, uHTS | Polyadenylate-binding protein 1 (Homo sapiens), P11940 | inhibition, % at 35 µM | 1% of 290,000 active;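 active means 50% or more with normal probe brightness, or confirmed in later tests; about a fifth of its hits are not listed in these tables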;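 further: calls also rest on retests at 20 µM and on dose response follow-up; controls were probe without protein and protein plus probe with vehicle; some compounds called inactive have numbers as strong as hits; many hits fall short of the cut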
Target sequence (P11940 whole entry, looked up): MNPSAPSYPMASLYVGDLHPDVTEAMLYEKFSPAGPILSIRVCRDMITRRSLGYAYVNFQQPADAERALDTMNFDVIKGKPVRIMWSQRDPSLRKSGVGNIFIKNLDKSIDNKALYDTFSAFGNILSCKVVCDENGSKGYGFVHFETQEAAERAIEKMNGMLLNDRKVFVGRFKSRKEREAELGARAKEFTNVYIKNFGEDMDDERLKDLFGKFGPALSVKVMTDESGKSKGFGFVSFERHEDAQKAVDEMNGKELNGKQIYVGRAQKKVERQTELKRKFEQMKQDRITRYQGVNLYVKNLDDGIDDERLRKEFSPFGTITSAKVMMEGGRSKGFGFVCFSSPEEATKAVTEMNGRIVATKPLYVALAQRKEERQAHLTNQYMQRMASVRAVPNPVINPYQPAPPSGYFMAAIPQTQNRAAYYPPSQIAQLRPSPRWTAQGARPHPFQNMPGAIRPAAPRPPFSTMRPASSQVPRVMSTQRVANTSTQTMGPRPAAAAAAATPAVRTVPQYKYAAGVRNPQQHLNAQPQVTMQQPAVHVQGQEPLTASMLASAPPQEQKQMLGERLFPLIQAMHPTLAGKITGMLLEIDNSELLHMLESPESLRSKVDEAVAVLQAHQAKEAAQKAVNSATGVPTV
CSC inhib – cancer stem cell viability inhibitors, primary screen, luminescence; cancer stem cell-like cells viability; inhibition, % at 7.5 µM; AID 2717, 2010; 1.1% of 300,000 active;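 active means mean at 75% or more and at least half the replicates too; tested in HMLE shEcad cells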;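 further: 0% = median of negative and 100% = median of positive control wells; the first replicate is given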
MT1-MMP act inh – blockers of MT1-MMP proenzyme processing, primary screen, HT1080 RFP-PRO-GFP cells, GFP/RFP fluorescence | AID 651647, 2012 | GFP/RFP ratio fluorescence, overnight; percent of plate control window, DMSO zero | 0.061% of 360,000 active | GFP/RFP ratio change, % at 20 µM;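 active means GFP/RFP ratio change of at least 30% with cell ATP level not reduced by more than half and red fluorescence within 50% of control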; further: strong numbers were not always called active
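Assay system: RFP-PRO-GFP reporter HT1080 cells; read-out basis: GFP/RFP fluorescence ratio; benchmarks: DMSO wells and RFP-L50D-GFP cells; doses: 20 µM single dose, 1% DMSO; schedule: overnight cell settling, then overnight compound exposure, 37 °C, 5% CO2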
UUG fidelity – modulators of yeast start codon fidelity, primary screen, whole organism, S. cerevisiae, single point, plate reader | S. cerevisiae UUG-firefly luciferase reporter, luminescence/redox ratio | activity score, % at 18.7 µM | 0.13% of 350,000 active | AID 602363, 2012;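 active means replicate mean at a twofold rise or more, about +100% in these data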;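 further: firefly luciferase made from a UUG start codon reports start codon fidelity; reporter light over untreated wells divided by growth signal over untreated wells; some hits fall short of that in this replicate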
MT1-MMP act inh RFP – further read-out of MT1-MMP act inh, marked with its call; RFP signal change, %; measured here: RFP expression control read;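 0 = vehicle wells; hits needed this value within 50% of zero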
* marks the source's active call; other numbers are inactive results; i = inactive; · = no result given.

Structure	Rce1 inhib	eIF4H FP inh	Env fusion inh	PABP polyA inh	CSC inhib	MT1-MMP act inh	MT1-MMP act inh RFP	UUG fidelity
O=C(Oc1ccc(C(=S)N2CCOCC2)cc1Cl)c1ccccc1F	i	-19	-2	0	-5	3	4	-20
O=C1CCC(C(=O)N2CCCC(Nc3ccc(F)cc3)C2)=NN1 (stereo unspecified)	i	2	-6	-2	1	-1	2	-24
CN(CC(=O)Nc1ccccc1Br)C(=O)c1cccn1C	i	·	-7	·	-9	-5	-6	-14
O=[N+]([O-])c1cc(Cl)cc(/C=N/n2cnnc2)c1O	i	-7	-4	8	-3	·	·	·
C=CCn1c2ccccc2c2nnc(SCc3ccc4nonc4c3)nc21	i	3	39	-9	-8	-6	-10	5
Cc1ccccc1NS(=O)(=O)c1cc2c3c(c1)C(C)C(=O)N3CCC2 (stereo unspecified)	i	·	21	·	-10	1	0	-9
CC12CCC(C(=O)N(CSC(=S)N/N=C\c3ccccc3Cl)C1=O)C2(C)C (stereo unspecified)	i	12	-3	-8	-17	-6	-6	-33
Cc1cc(C)cc(NS(=O)(=O)c2ccc(NC(=S)Nc3ccccc3)cc2)c1	i	-8	·	14	6	7	1	·
CCOC(=O)Nc1ccc2ncn(C)c(=O)c2c1	i	-10	-2	0	-1	1	-3	2
Cc1cc(=O)oc2ccc(OC(=O)c3cccc(S(=O)(=O)N4CCOCC4)c3)cc12	i	-1	·	1	-7	3	0	1

Single records, from the list above. Order of screens: Rce1 inhib | eIF4H FP inh | Env fusion inh | PABP polyA inh | CSC inhib | MT1-MMP act inh | MT1-MMP act inh RFP | UUG fidelity
CN(CC(=O)Nc1ccccc1Br)C(=O)c1cccn1C across the screens: i | · | -7 | · | -9 | -5 | -6 | -14
CC12CCC(C(=O)N(CSC(=S)N/N=C\c3ccccc3Cl)C1=O)C2(C)C (stereo unspecified) across the screens: i | 12 | -3 | -8 | -17 | -6 | -6 | -33

The main list resumes; the seven compounds before the break are reprinted first.
Structure	Rce1 inhib	eIF4H FP inh	Env fusion inh	PABP polyA inh	CSC inhib	MT1-MMP act inh	MT1-MMP act inh RFP	UUG fidelity
O=[N+]([O-])c1cc(Cl)cc(/C=N/n2cnnc2)c1O	i	-7	-4	8	-3	·	·	·
C=CCn1c2ccccc2c2nnc(SCc3ccc4nonc4c3)nc21	i	3	39	-9	-8	-6	-10	5
Cc1ccccc1NS(=O)(=O)c1cc2c3c(c1)C(C)C(=O)N3CCC2 (stereo unspecified)	i	·	21	·	-10	1	0	-9
CC12CCC(C(=O)N(CSC(=S)N/N=C\c3ccccc3Cl)C1=O)C2(C)C (stereo unspecified)	i	12	-3	-8	-17	-6	-6	-33
Cc1cc(C)cc(NS(=O)(=O)c2ccc(NC(=S)Nc3ccccc3)cc2)c1	i	-8	·	14	6	7	1	·
CCOC(=O)Nc1ccc2ncn(C)c(=O)c2c1	i	-10	-2	0	-1	1	-3	2
Cc1cc(=O)oc2ccc(OC(=O)c3cccc(S(=O)(=O)N4CCOCC4)c3)cc12	i	-1	·	1	-7	3	0	1
CC(=O)Nc1ccc(NC(=O)CSc2nnc(C)c(=O)[nH]2)cc1	i	19	-90	-2	-7	1	1	-7
O=S(=O)(NC1CCCc2ccccc21)c1cnc[nH]1 (stereo unspecified)	i	0	4	4	-11	5	4	-17
Cc1cc(C(=O)CN2C(=O)C(=O)N(Cc3ccccc3)C2=O)c(C)n1Cc1ccccc1	·	·	·	·	97*	-2	0	-7
COc1ccc(OC)c(NS(=O)(=O)c2ccc(NC(=O)C3COc4ccccc4O3)cc2)c1 (stereo unspecified)	i	-9	52	-1	9	-1	-13	-17
O=C1c2c(O)cc(O)cc2O[C@H](c2ccc(O)c(O)c2)[C@@H]1O	i	2	·	5	-9	·	·	·
CCC(C)(C)NC(=O)C(c1cccnc1)N(CCOC)C(=O)Cn1nnc2ccccc21 (stereo unspecified)	i	1	·	-11	·	0	2	-14
CCN1C(=O)N[C@@H](CCc2ccccc2)C(C(=O)OC)=C1C	i	·	23	·	25	1	-7	-10
C=C(C)Cn1c(=O)c2c(nc3n2CCCN3CCc2ccccc2)n(C)c1=O	i	-2	19	0	47	1	1	-20
COCCNC(=O)CC(NS(=O)(=O)c1ccc(C)cc1)c1ccco1 (stereo unspecified)	i	-1	·	-4	-11	-1	0	·
O=C(CNC(=O)Cc1ccccc1)N=Nc1c(O)n(Cc2ccc3c(c2)OCO3)c2ccccc12	i	-2	26	0	·	-3	-8	-35

Further compounds.
Structure	Rce1 inhib	eIF4H FP inh	Env fusion inh	PABP polyA inh	CSC inhib	MT1-MMP act inh	MT1-MMP act inh RFP	UUG fidelity
O=C1CCN(Cc2ccccc2)S(=O)(=O)c2ccccc21	i	-10	22	-3	-6	6	5	-6
O=C(NC(c1ccc(Cl)cc1)c1ccsc1)C1CCN(Cc2cccc(Cl)c2)CC1 (stereo unspecified)	·	·	37	·	·	-4	-6	-6
O=C(NC1CC1)c1cc2cc3ccccc3nc2s1	i	7	-108	0	-6	2	-1	-15
CC12CCC(=O)N1C(C(=O)Nc1nc3ccc(S(C)(=O)=O)cc3s1)CS2 (stereo unspecified)	i	0	55*	5	·	0	4	-13
COc1ccc(C2=CC(c3ccc(Cl)cc3)n3cnnc3N2)cc1OC (stereo unspecified)	i	10	-108	2	5	-56	-2	-14
O=S(=O)(c1ccc2c(c1)OCCO2)N1CCC(n2cnc3cc(F)ccc32)CC1	i	-2	-26	3	-9	5	-8	-24
CCCc1cc(=O)[nH]c(SCC(=O)Nc2cc(S(=O)(=O)N3CCOCC3)ccc2Cl)n1	·	·	·	·	-7	-2	5	-8
CC(C)C1(C(C)C)OC(=O)c2ccccc21	i	-5	·	6	-3	4	6	-11
O=C(O)C1=C(C(=O)Nc2ccc(F)c(Cl)c2)CCCC1	i	-7	-62	0	·	3	4	-16
CC1CC(N(C(=O)c2ccccc2Cl)c2ccccc2)c2ccccc2N1 (stereo unspecified)	i	15	·	0	48	-1	-11	5

(continued)
Structure	Rce1 inhib	eIF4H FP inh	Env fusion inh	PABP polyA inh	CSC inhib	MT1-MMP act inh	MT1-MMP act inh RFP	UUG fidelity
c1csc(-c2cnc3n2CCCC3)c1	·	-8	·	16	·	-1	0	-12
Cc1cccc(NS(=O)(=O)Cc2ccccc2)c1C	i	-6	3	-4	4	-6	-7	0
CC[C@@H]1CCCCc2ccccc2[C@@H](C(=O)C[C@@H](O)CC(C)=O)OC1=O	·	·	-13	·	·	-2	4	3
CC(C)c1ccc(CCNC(=O)CCNS(=O)(=O)c2ccc(Br)cc2)cc1	·	·	32	·	2	2	-9	-4
O=C(CCCSc1nc2ccccc2[nH]1)NC(c1ccccc1)c1ccccc1	i	5	32	6	-12	0	-10	·
COc1ccc(CN2CCN(C(C)C(=O)N3CCc4ccccc43)CC2)cc1OC (stereo unspecified)	i	6	3	-1	-9	4	4	-22
c1ccc2c(c1)nc1n2CCS1	i	-9	-6	-6	·	6	4	-19
Cc1ccc(OC(=O)CCc2c(C)nc3ncnn3c2C)cc1	i	6	3	-1	-12	6	6	-24
Cc1ccc(NS(=O)(=O)c2ccc(CCC(=O)NCc3cccnc3)cc2)cc1	i	-13	16	-9	-12	1	-1	-16
CCc1ccc(CN(C(=O)c2ccco2)C2CCS(=O)(=O)C2)cc1 (stereo unspecified)	i	-9	-3	-10	-6	-3	-3	-8

Later entries.
Assay codes: A = Rce1 inhib; B = eIF4H FP inh; C = Env fusion inh; D = PABP polyA inh; E = CSC inhib; F = MT1-MMP act inh; G = MT1-MMP act inh RFP; H = UUG fidelity
Cc1ccc(-c2onc3ccc(C4OCCO4)cc23)cc1
  A: i; B: 1; C: -46; D: -8; E: -12; F: 0; G: 3; H: ·
N#Cc1cc2c(nc1Cl)CCC2
  A: i; B: -3; C: -5; D: 5; E: -5; F: 4; G: 2; H: -4
CC1(C)CC(=O)C2=C(C1)N=C1SCCC(=O)N1C2c1cccc([N+](=O)[O-])c1 (stereo unspecified)
  A: i; B: 4; C: 21; D: -7; E: 1; F: 3; G: 7; H: ·
O=C(CSc1ccc(-c2ccccc2)nn1)Nc1ccc2c(c1)OCCO2
  A: i; B: -6; C: -28; D: 2; E: -3; F: 5; G: 0; H: ·
CCCNc1nc(C)c(C(C)=O)cc1C#N
  A: i; B: -8; C: ·; D: 3; E: 14; F: -1; G: 1; H: -15
Cc1ccccc1Cn1cnc2c(nnn2Cc2ccc(F)cc2)c1=O
  A: i; B: -10; C: -33; D: -9; E: -4; F: 3; G: 5; H: ·
CCOn1c(=O)c(-c2cccc([N+](=O)[O-])c2)[n+]([O-])c2ccccc21
  A: i; B: -3; C: 14; D: 4; E: -17; F: 0; G: 2; H: ·
COc1ccc(NC(=O)CN(C)S(=O)(=O)c2ccccc2)cc1OC
  A: i; B: 1; C: ·; D: 6; E: ·; F: 3; G: 2; H: ·
O=S(=O)(NC1CC1)c1ccc(S(=O)(=O)N2CCc3ccccc32)cc1
  A: i; B: 3; C: ·; D: 6; E: 2; F: -2; G: -16; H: 2
CCn1ncc([N+](=O)[O-])c1C(=O)N1CCc2ccccc2C1
  A: i; B: 0; C: 3; D: 12; E: 3; F: -2; G: 0; H: -18
Cc1ccc(CC(=O)N(C)CC(=O)N(CC(C)C)c2c(N)n(CC(C)C)c(=O)[nH]c2=O)cc1C
  A: i; B: ·; C: ·; D: ·; E: 8; F: 0; G: 1; H: 10
OCn1c2ccccc2c2ccccc21
  A: i; B: 4; C: -10; D: 2; E: -4; F: -2; G: 4; H: -9
CC(C)(C)C(=O)C[n+]1cccc(C(N)=O)c1
  A: i; B: 1; C: 13; D: 8; E: 1; F: 0; G: 3; H: -15
COc1cccc(C(=O)c2c(-c3ccccc3)ncc3cc(OC)c(OC)cc23)c1
  A: ·; B: ·; C: -9; D: ·; E: ·; F: -3; G: -5; H: -8
Fc1cc(Cl)ccc1Nc1nc(NCc2ccccc2)nc2ccsc12
  A: ·; B: ·; C: 17; D: ·; E: ·; F: -12; G: -21; H: -5

More results follow:
Assay codes: A = Rce1 inhib; B = eIF4H FP inh; C = Env fusion inh; D = PABP polyA inh; E = CSC inhib; F = MT1-MMP act inh; G = MT1-MMP act inh RFP; H = UUG fidelity
O=C(N/C(=C\c1ccc([N+](=O)[O-])cc1)C(=O)N1CCCCC1)c1ccco1
  A: ·; B: -14; C: 1; D: 5; E: -8; F: -3; G: -4; H: -22
Clc1ccc(CSc2ncnc3nc[nH]c23)cc1
  A: i; B: -2; C: -10; D: 2; E: 50; F: -1; G: 2; H: ·
Cc1ccc(S(=O)(=O)N2CCCCC2)cc1NC(=O)COC(=O)CNC(=O)c1cc(Cl)cc([N+](=O)[O-])c1
  A: i; B: -12; C: ·; D: -5; E: -4; F: 4; G: 3; H: ·
O=C(CSc1nc(Cc2ccccc2)nc2ccccc12)c1ccc2c(c1)OCCO2
  A: i; B: 1; C: ·; D: 13; E: 46; F: 1; G: -4; H: -19
C=CCN1C(=O)/C(=C/c2ccc(-c3ccc(F)cc3)o2)SC1=S
  A: i; B: 44; C: 10; D: 13; E: -3; F: -38; G: 9; H: -16
Cc1ccc(NC(=O)C2CCCN2c2nn3c(=O)cc(C)nc3s2)cc1 (stereo unspecified)
  A: i; B: -1; C: -11; D: -7; E: -12; F: -1; G: 4; H: -11
